Screening results from PubChem BioAssay.
N370S GC mod – N370S glucocerebrosidase modulation, Gaucher chaperone candidate; P04062; N370S GC spleen homogenate, 4MU-glucoside fluorescence; Potency, µM (titrated, usually from 59.4 µM), for the others: at the highest dose activity change, negative = inhibition, most hits filed as inhibitors; 330,000 tested, 0.092% active; AID 2101;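 note: 0% = full enzyme activity and -100% = no enzyme basal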
TDP1 cell noCPT – qHTS for Inhibitors of human tyrosyl-DNA phosphodiesterase 1 (TDP1): qHTS in cells in absence of CPT; DT40 Tdp1-/- hTDP1 cells, no CPT, ATP luminescence, 48 h; Potency, µM (titrated, usually from 46.2 µM), without a hit: top-dose activity change, negative = growth inhibition, most hits filed as inhibitors; 420,000 tested, 15% active; AID 686978, 2013; note: nearly all actives have a fitted effect of over 55% in size
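Compound effects on proliferation are scored in DT40 Tdp1-/-;hTDP1 cells in the absence of CPT. ATP levels (CellTiter-Glo luminescence) are recorded after a ≥48 hr, 37 °C incubation.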
* = called active by the depositor; ? = inconclusive; . = no result given; [ ] = remark or other dose. Calls come from the whole dose curve; as a rule, active = well fitted curve in the direction sought with a large enough effect; inconclusive = small, poorly fitted or top-dose-only effect, or another doubt; inactive = no such curve, though single readings can be large; an effect the other way counts as inactive or inconclusive. Unless noted, % is set by controls: 0 for no effect and ±100 for the full control effect; potency is the fitted concentration of half-maximal effect. These rows are one share of the data; most or all hits stand in other tables.

A first look (12 entries):
Value order – N370S GC mod | TDP1 cell noCPT
O=c1[nH]c(=O)n(-c2cccc(Cl)c2)c(O)c1C=NCCCN1CCOCC1
    -9.3% | -2.6%
C=CCn1c(O)c(/C=N/N2CCCCC2)c(=O)[nH]c1=O
    8.0% | 1.9%
C=CCO
    1.1% | .
Oc1ccc(Cl)cc1Cl
    -2.2% | .
c1ccc(-c2cc3c(nc2-c2ccccc2)CCNC3)cc1
    -4.7%[12.8 µM] | .
C[C@H]1CC[C@@H]2[C@@H](C)[C@H]3C(C[C@H]4C5CC[C@H]6C[C@@H](O)CC[C@]6(C)C5CC[C@]34C)N2C1 (some centres undefined)
    2.7% | .
O=C(O)C(Br)Br
    0.9% | .
NS(=O)(=O)c1ccc(N=Cc2c(O)n(-c3ccccc3)c(=O)[nH]c2=O)cc1
    -4.6% | 6.1%
Cn1c(O)c(C=NCCCN2CCCC2=O)c(=O)n(C)c1=O
    6.0% | -4.4%
O=C(O)CCC(CP(=O)(O)O)C(=O)O (centres undefined)
    -4.7% | .
C=CCn1c(O)c(C(CC)=Nc2cccc(C(F)(F)F)c2)c(=O)[nH]c1=O
    7.4% | 9.6%
CC1CCN(S(=O)(=O)c2ccc(NN=C(C#N)C#N)cc2)CC1
    -8.7% | .

The listing (from the top)
Value order – N370S GC mod | TDP1 cell noCPT
O=c1[nH]c(=O)n(-c2cccc(Cl)c2)c(O)c1C=NCCCN1CCOCC1
    -9.3% | -2.6%
C=CCn1c(O)c(/C=N/N2CCCCC2)c(=O)[nH]c1=O
    8.0% | 1.9%
C=CCO
    1.1% | .
Oc1ccc(Cl)cc1Cl
    -2.2% | .
c1ccc(-c2cc3c(nc2-c2ccccc2)CCNC3)cc1
    -4.7%[12.8 µM] | .
C[C@H]1CC[C@@H]2[C@@H](C)[C@H]3C(C[C@H]4C5CC[C@H]6C[C@@H](O)CC[C@]6(C)C5CC[C@]34C)N2C1 (some centres undefined)
    2.7% | .
O=C(O)C(Br)Br
    0.9% | .
NS(=O)(=O)c1ccc(N=Cc2c(O)n(-c3ccccc3)c(=O)[nH]c2=O)cc1
    -4.6% | 6.1%
Cn1c(O)c(C=NCCCN2CCCC2=O)c(=O)n(C)c1=O
    6.0% | -4.4%
O=C(O)CCC(CP(=O)(O)O)C(=O)O (centres undefined)
    -4.7% | .
C=CCn1c(O)c(C(CC)=Nc2cccc(C(F)(F)F)c2)c(=O)[nH]c1=O
    7.4% | 9.6%
CC1CCN(S(=O)(=O)c2ccc(NN=C(C#N)C#N)cc2)CC1
    -8.7% | .
CCCCn1c(O)c(C(CC)=NCCCN(C)C)c(=O)[nH]c1=O
    -0.4% | ?
CCCCCSc1cc(O)c(C(CNC)C(C)C)cc1OC (centres undefined)
    ? | 16.4µM*
c1ccc2c(c1)c1cc[n+]2CCCCC[n+]2ccc(c3ccccc32)NCCCCCN1
    -1.4% | .
COc1ccc(CN2CCN(c3ccccc3F)CC2)c(OC)c1
    -17.8% | .
CC(=NCc1ccco1)c1c(O)n(-c2ccccc2C)c(=O)[nH]c1=O
    -1.0% | 5.2%
COCCNP(=O)(c1ccccc1)c1nc2ccccc2s1 (centres undefined)
    8.8% | .
CN(C)C(=O)Nc1ccc(Cl)cc1
    4.9% | .
CCc1ccc(-n2c(O)c(/C=N/N3CCCCC3c3cccnc3)c(=O)[nH]c2=O)cc1 (centres undefined)
    -1.2% | 9.5%

Single records (already shown):
`Oc1ccc(Cl)cc1Cl` is entered as N370S GC mod = -2.2%; TDP1 cell noCPT = .
`CCc1ccc(-n2c(O)c(/C=N/N3CCCCC3c3cccnc3)c(=O)[nH]c2=O)cc1` (centres undefined) is entered as N370S GC mod = -1.2%; TDP1 cell noCPT = 9.5%

Other results.
CCCCn1c(O)c(/C=C/C=Nc2ccccc2)c(=O)[nH]c1=O
  N370S GC mod: -15.7%	TDP1 cell noCPT: -3.7%

CC1=NN(c2ccccc2)C(=O)/C1=C/c1c(O)[nH]c(=O)[nH]c1=O
  N370S GC mod: -1.0%	TDP1 cell noCPT: -29.3%

C/C(=N\Nc1ccccc1)c1c(O)[nH]c(=O)[nH]c1=O
  N370S GC mod: -3.3%	TDP1 cell noCPT: 2.1%

COC1(C)CC(c2ccccc2)c2c(c3ccccc3oc2=O)O1 (centres undefined)
  N370S GC mod: 1.9%	TDP1 cell noCPT: .
